Screens as filed in PubChem BioAssay.
GIV-Gai inh – inhibitors of GIV GBA-motif binding to rat Galpha-i3; P08753; actives 0.42% (n = 210,000); percent of control (FP), % (concentration not given with the values); Galpha-i3/FITC-GIV peptide fluorescence polarization, 90 min; stronger effect = lower value; scaled: aluminum fluoride 0%, vehicle 100%;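 active = replicate mean at 85% of control or lower, very high polarization wells dropped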;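 also: wells of about 15 µL received 100 nL stock; the first replicate is given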
Target sequence (P08753 whole entry, looked up): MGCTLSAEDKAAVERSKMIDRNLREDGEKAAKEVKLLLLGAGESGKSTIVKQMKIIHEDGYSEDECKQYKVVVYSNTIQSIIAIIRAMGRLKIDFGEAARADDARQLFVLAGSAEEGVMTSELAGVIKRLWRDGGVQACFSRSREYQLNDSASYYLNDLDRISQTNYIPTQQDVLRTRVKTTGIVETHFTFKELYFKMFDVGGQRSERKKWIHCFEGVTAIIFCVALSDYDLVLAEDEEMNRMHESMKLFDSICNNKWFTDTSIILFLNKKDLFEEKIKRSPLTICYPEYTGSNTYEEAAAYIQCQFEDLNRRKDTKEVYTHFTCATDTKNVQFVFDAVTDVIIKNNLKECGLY
* = called active by the depositor.

Sample of the layout, 16 compounds:
SMILES	GIV-Gai inh
O=C(Nc1ccc(-c2noc(-c3ccccc3[N+](=O)[O-])n2)cc1)c1ccc(Br)o1	111
O=c1oc2cc(O)ccc2cc1-c1nnc(NC2CCCCC2)s1	-31*
O=C(N/N=C/c1cn(-c2ccccc2)nc1-c1ccccc1)c1ccccc1	105
COc1ccccc1OCC(=O)NN1S(=O)(=O)c2ccccc2S1(=O)=O	98
CCOc1ccc(-c2nn3c(=O)c(NC(=O)c4ccc(OC)cc4)cnc3o2)cc1	101
CCOc1ccc(-c2csc(Cc3nc(-c4ccccc4Cl)no3)n2)cc1	98
Cc1ccc(C(=O)Nc2c(C(=O)NCC3CC3)[nH]c3ccc(C)cc23)cc1	103
Cc1ccccc1-n1c(=S)sc2c1nc(SCC1OCCO1)n1c3ccccc3nc21	110
Cc1noc(C)c1C1CCCN1Cc1ccccc1OC(C)C (configuration not stated)	101
CCC(=O)N1CCCCC1CCN1CCCCC1 (configuration not stated)	102
COc1ccccc1CNC(=O)C1CCN(S(=O)(=O)c2ccc3nc4c(c(C(=O)O)c3c2)CCCC4)CC1	104
C=C1C(Cl)=C(c2ccccc2)Oc2ccccc2C1c1ccc(C)cc1 (configuration not stated)	109
COc1cc(C(=O)Oc2ccc3c(=O)c(Oc4ccccc4Br)coc3c2)cc(OC)c1OC	106
NC(=O)C1CCN(C(=O)c2ccc3c(=O)n(C4CCCCC4)c(SCc4ccncc4)nc3c2)CC1	113
Cc1cnc(NC(=O)c2c(O)c3cccc4c3n(c2=O)CCC4)s1	122
Cc1cc2c(cc1C)N(C(=O)CCC1CCCCC1)C(C)(C)c1ssc(=S)c1-2	109

All compounds of this part (from the top)
SMILES	GIV-Gai inh
O=C(Nc1ccc(-c2noc(-c3ccccc3[N+](=O)[O-])n2)cc1)c1ccc(Br)o1	111
O=c1oc2cc(O)ccc2cc1-c1nnc(NC2CCCCC2)s1	-31*
O=C(N/N=C/c1cn(-c2ccccc2)nc1-c1ccccc1)c1ccccc1	105
COc1ccccc1OCC(=O)NN1S(=O)(=O)c2ccccc2S1(=O)=O	98
CCOc1ccc(-c2nn3c(=O)c(NC(=O)c4ccc(OC)cc4)cnc3o2)cc1	101
CCOc1ccc(-c2csc(Cc3nc(-c4ccccc4Cl)no3)n2)cc1	98
Cc1ccc(C(=O)Nc2c(C(=O)NCC3CC3)[nH]c3ccc(C)cc23)cc1	103
Cc1ccccc1-n1c(=S)sc2c1nc(SCC1OCCO1)n1c3ccccc3nc21	110
Cc1noc(C)c1C1CCCN1Cc1ccccc1OC(C)C (configuration not stated)	101
CCC(=O)N1CCCCC1CCN1CCCCC1 (configuration not stated)	102
COc1ccccc1CNC(=O)C1CCN(S(=O)(=O)c2ccc3nc4c(c(C(=O)O)c3c2)CCCC4)CC1	104
C=C1C(Cl)=C(c2ccccc2)Oc2ccccc2C1c1ccc(C)cc1 (configuration not stated)	109
COc1cc(C(=O)Oc2ccc3c(=O)c(Oc4ccccc4Br)coc3c2)cc(OC)c1OC	106
NC(=O)C1CCN(C(=O)c2ccc3c(=O)n(C4CCCCC4)c(SCc4ccncc4)nc3c2)CC1	113
Cc1cnc(NC(=O)c2c(O)c3cccc4c3n(c2=O)CCC4)s1	122
Cc1cc2c(cc1C)N(C(=O)CCC1CCCCC1)C(C)(C)c1ssc(=S)c1-2	109
O=S(=O)(NC1CCCCCC1)c1ccc(-c2nnc(C3CCCC3)o2)o1	105
CCCCC(C(=O)Nc1ccc(C)c(Cl)c1)N1C(=O)C2C3c4ccccc4C(c4ccccc43)C2C1=O (configuration not stated)	120
N#CC1=CN(c2ccc(Cl)c(Cl)c2)c2ccc(F)cc2S1(=O)=O	105
O=C(C1CCN(Cc2c[nH]c3ccc(Cl)cc23)CC1)N1CCCCC1	99
COCC(=O)Nc1cc(F)c2nc(N3CCOCC3)ccc2c1	105
Cc1cc(C2CCCN2C(=O)c2nn(C)cc2Cl)on1 (configuration not stated)	102
COc1ccc(/C=C2\N=C(c3ccccc3Br)OC2=O)cc1OC(C)=O	121
CC1=C(C(=O)Nc2cccc(F)c2)C(c2cccs2)C2=C(CC(C)(C)CC2=O)N1 (configuration not stated)	102
Cc1ccc(C)c(NS(=O)(=O)c2cc(S(=O)(=O)Nc3cc(C)ccc3C)c3cccc4c3c2NC4=O)c1	110
CC(=O)C1SC(N)=C(C#N)C1c1ccc(Cl)c(Cl)c1 (configuration not stated)	110
CCC(=O)NCc1nc2c(n1C)CN(C(=O)c1cc3c(s1)CCCC3)CC2	112
CC(C)CCSc1nnc2c(S(=O)(=O)N3CCN(c4ccc(F)cc4)CC3)cccn12	104
COc1ccccc1C1CC(=O)Nc2c1c(C)nn2-c1ccc2nnc(C)n2n1 (configuration not stated)	100
CC1CCN(C(=O)CC2CCN(S(=O)(=O)c3ccc(Cl)s3)CC2)CC1	101
Cn1nc(C(=O)N2CCCC2)c2c1CCN(C(=O)CCC(=O)NCc1cccc(Cl)c1)C2	104
COC(=O)c1c(-c2ccc(F)cc2)noc1NC1CCCCC1	106
COc1ccccc1N1CCN(C(=O)CSc2nc3ccccc3c(=O)n2Cc2ccc3c(c2)OCO3)CC1	104
CCS(=O)(=O)c1nc2ccc(NS(=O)(=O)c3ccc4c(c3)CCCC4)cc2s1	109
COc1ccccc1C(=O)Nc1cc2c3c(c1)C1CCCC1CN3CC1CCCC21 (configuration not stated)	116
Cc1cc(C(=O)NCCCN2CCc3ccccc3C2)c(C)n1-c1ccc(N2CCC(C)CC2)nc1	99
COC(=O)c1c2c(c3ccccc3c1O)OC(c1ccc(OC)cc1)(c1ccc(OC)cc1)C=C2	113
CCCCNC(=O)c1ccccc1O[C@@H]1O[C@H](COC(C)=O)[C@@H](OC(C)=O)[C@H](OC(C)=O)[C@H]1NC(C)=O	114
COc1ccc(C(=O)N2CCN(Cc3cc(=O)n4nc(-c5ccc(OC)cc5)sc4n3)CC2)cc1	100
O=c1/c(=C/c2cc(Br)cc([N+](=O)[O-])c2O)sc2nc3ccccc3n12	128
CC(=O)N1CC(=O)N(OCC(O)COc2ccccc2)C1c1ccc(Cl)cc1Cl (configuration not stated)	110
CC1(C)c2ccccc2N(c2ccccc2)C12C=Cc1cc([N+](=O)[O-])cc(Cl)c1O2 (configuration not stated)	112
CCN1CCN(C(=O)c2sc3ncnc(N4CCN(c5ccccc5F)CC4)c3c2C)CC1	97
Cc1nc2c(C(=O)NCc3ccc4c(c3)OCO4)cnn2c(C)c1Cc1ccccc1Cl	105
Fc1ccc(CN=C2Nc3ccccc3NC23CCCCCC3)cc1	100
CC(C)c1cc(C2CCCN2C(=O)Cn2nc(C(F)(F)F)c3c2CCCC3)no1 (configuration not stated)	107
COc1ccc(NC(=O)c2ccc(N3CC4CC(C3)c3cccc(=O)n3C4)c(NC(=O)c3ccc(F)cc3)c2)cc1OC (configuration not stated)	109
CCOP(=O)(OCC)c1nc(-c2ccccc2Cl)oc1NCc1ccccc1	118
C=CCOc1cccc(C2CC(=O)Nc3c2c(C)nn3-c2nc3ccccc3s2)c1 (configuration not stated)	101
COc1ccc(C2C3=C(OC(C)=O)c4ccccc4C3=Nc3c2c(=O)n(C)c(=O)n3C)cc1 (configuration not stated)	105
Cc1ccccc1NC(=O)c1ccc(=O)n(Cc2cccc(F)c2)c1	104
N#CC1=C(SCC(=O)C23CC4CC(CC(C4)C2)C3)NC(=O)C(C#N)C12CCCCC2 (configuration not stated)	104
COc1ccc(NC(=O)C2CCN(c3cc(C)c4cc(NC(C)=O)ccc4n3)CC2)cc1Cl	101
COc1ccc(N2CCN(c3ncnc4sc(C(=O)N(C)Cc5ccccc5)c(C)c34)CC2)cc1	110
O=C(CCC(=O)N1Cc2cccn2-c2ccccc21)NC1CCCc2ccccc21 (configuration not stated)	106
CCOC(=O)C1=C(O)/C(=C/c2ccc(OC)c(OC)c2)SC1=Nc1cccc(Cl)c1	116
Cc1onc(-c2ccc(F)cc2F)c1C(=O)N1CCC(C)CC1	110
CCc1nnc(-c2coc(S(=O)(=O)N(CC)CC)c2)o1	99
CC1CCCN(CC2CCN(S(=O)(=O)Cc3c(F)cccc3Cl)CC2)C1 (configuration not stated)	107
Cc1noc(/C=C/c2ccc(S(=O)(=O)N3CCCCC3)s2)c1NC(=O)C1CC1	106

Later entries
SMILES	GIV-Gai inh
CC1CCCN(c2ccc(-c3csc(S(=O)(=O)N4CCCCC4)c3)nn2)C1 (configuration not stated)	103
CN1c2ccccc2C(C)(C)C12C=Nc1c(cc(N3CCOCC3)c3ccccc13)O2 (configuration not stated)	120
CN1C(=O)C(C)(C)c2cc(S(=O)(=O)NCC(=O)NCC(=O)NC3CCCC3)ccc21	101
O=C(CC(c1ccccc1)c1ccccc1)NCC1(c2ccccc2)CCOCC1	112
COc1cccc(-n2c(=S)sc3c2nc(SCC(=O)O)n2c4ccccc4nc32)c1	105
COc1nc(Nc2nc3ccccc3c(=O)[nH]2)nc2ccc(C)cc12	118
O=C1NC(=O)N(c2ccc3c(c2)OCO3)C(=O)/C1=C/c1ccc(-c2cc(C(=O)O)ccc2Cl)o1	102
O=S(=O)(Nc1ccc(F)cc1)c1cccnc1Nc1ccc(Br)cc1	107
O=S(=O)(c1ccc2c(c1)OCCO2)N1CCn2cccc2C1c1ccc(F)cc1 (configuration not stated)	103
O=C(NCc1ccccc1)c1ccc2c(c1)N(Cc1cccc(F)c1)C(=O)c1ccccc1S2	105
CSc1ccccc1C(=O)Nc1ccc2c(c1)N(C(C)=O)c1ccccc1CC2	111
COc1ccc(NC(=O)CSc2nc3ccccc3c(=O)n2CCC(=O)N2CCN(c3ccccc3)CC2)c(OC)c1	110
Fc1ccc(-c2nc(-c3ccc4nncn4c3)no2)cc1	111
COC(CNC(=O)c1cc(S(=O)(=O)N2CC(C)CC(C)C2)ccc1Sc1cccc(Cl)c1)OC (configuration not stated)	105
Cc1ccc(-c2nc3sc(CCNS(=O)(=O)c4ccc(Cl)cc4)c(C)n3n2)cc1	98
Cc1ccc(C)c(CN2CCCC2c2c(C)noc2C)c1 (configuration not stated)	111
CN(CC1(C)CCOCC1)S(=O)(=O)c1cn(C)cn1	106
O=C(O)c1cccnc1SCc1ccccc1Cl	105
Cc1cc2nc(CSc3nnc4c(n3)[nH]c3ccccc34)cc(=O)n2o1	107
Cc1noc2ncnc(NC(C)C)c12	103
Cc1ccn2c(NC(=O)c3ccco3)c(-c3ccccc3)nc2c1	106
O=C1c2ccccc2C(=O)N1CC(=O)N1CCCc2ccccc21	111
CC1(C)CC(=O)C2=C(C1)OC1=C(C(=O)CC(C)(C)C1)C2c1ccccc1OCc1ccc(Cl)cc1	122
COc1cc(/C=C2/C(=O)N(c3cccc(Br)c3)N=C2C)ccc1OC(=O)c1cccs1	103
COCCCNC(=O)N1CCCn2nc(-c3ccc(C(F)(F)F)cc3)cc2C1	99
Cc1cc(C)c2c(N)c(C(=O)Nc3nnc(-c4ccccc4)s3)sc2n1	105
CCCCOC(=O)C1=C(C)NC2=C(C(=O)CCC2)C1c1ccc(Cl)cc1 (configuration not stated)	103
CCN1C(=O)N(CC)C(NNC(N)=S)C1NNC(N)=S (configuration not stated)	104
CCSc1nc2ccc(NC(=O)CSCC(=O)Nc3c(C)cccc3C)cc2s1	109
Cc1cc(-n2c(SCC(=O)Nc3ccccc3C(F)(F)F)nc3n[nH]c(C)c3c2=N)ccc1Cl	107
CCCCOCC1CC2(CC(C)(c3csc(Nc4ccccc4)n3)OC2=O)C(=O)O1 (configuration not stated)	115
CC(C)c1nnc(-c2coc(S(=O)(=O)N3CCCC3)c2)o1	103
Cc1ncc2c(N3CCOCC3)nccn12	108
COc1ccc(NC(=O)CSc2nnc(-c3ccccc3)c(-c3ccccc3)n2)cc1	114
COCCNC(=O)c1ccc(Cn2c(SCC(=O)NCc3ccccc3)nc3ccc(Br)cc3c2=O)cc1	97
CCOC(=O)c1cnc2ccccc2c1Nc1ccc(C)cc1	106
CCC(C)NC(=O)c1cncc(-c2ccc(C)cc2)c1 (configuration not stated)	99
O=C(NC1CCCC1)C1CCCN(S(=O)(=O)c2cc(-c3noc(C4CCCC4)n3)cs2)C1 (configuration not stated)	115
Cc1cc(C2CCCN2Cc2cc(Cl)ccc2O)no1 (configuration not stated)	104
Cc1oc(C2CCN(C(=O)C3CCCO3)CC2)nc1C(=O)N1CCSCC1 (configuration not stated)	93
CCC(CO)NCC(O)Cn1c2ccc(Cl)cc2c2cc(Cl)ccc21 (configuration not stated)	114
COC(=O)C1=C(C(=O)OC)SC2(S1)C(C(=O)OC)=C(C(=O)OC)SC1=C2c2cc(C)cc(C)c2N(C(=O)Cc2ccccc2)C1(C)C	101
Cn1c(SCc2nc(-c3ccccc3Br)no2)nc2cc3c(cc2c1=O)OCO3	107
CCOCCCNC(=O)c1cc(Nc2ccccc2)nc2ccccc12	104
Cc1cc2nc(COc3ccc(Cl)cc3NC(=O)C3CCCCC3)cc(=O)n2o1	112
O=c1/c(=C/c2ccc(Cl)cc2)sc2nnc(-c3ccccc3Cl)n12	108
CCn1cc(C2CC(=O)Nc3c2c(C)nn3-c2nc3ccccc3[nH]2)c(C)n1 (configuration not stated)	108
COC(=O)C1=c2s/c(=C/c3cccc(OC)c3)c(=O)n2C(N)=C(C#N)C1c1cccc(OC)c1 (configuration not stated)	112
CCN1CCCC1CNC(=O)c1cc2cc(S(=O)(=O)N(CC)CC)ccc2n1C (configuration not stated)	112
Cc1ccc2c(c1)c(-c1ccccc1)c(-c1ccccc1)n2CC(O)Cn1nc(C)cc1C (configuration not stated)	108
O=C(Cc1ccc(Cl)cc1)NCc1nc(-c2ccc3c(c2)nnn3C2CCCC2)no1	100
Cn1cnc2c(C(=O)N3CCN(c4ncccn4)CC3)nn(-c3ccc(Cl)cc3)c2c1=O	105
CN1C=C/C(=C/C=C/C=Nc2cc(C(C)(C)C)cc(C(C)(C)C)c2)c2ccccc21	158
COc1ccc(/C=C/C(=O)NCC2(c3ccccc3)CCCC2)cc1OC	122
CC(=O)Nc1ccc(-c2noc(C3CCCN(C(=O)c4cncc(Br)c4)C3)n2)cc1 (configuration not stated)	105
Cc1cc(S(=O)(=O)N2CCc3ccccc3C2CN2C(=O)c3ccccc3C2=O)ccc1F (configuration not stated)	110
O=C(Nc1ccc(Br)cc1F)NC1CCN(c2ccc(F)cc2)C1=O (configuration not stated)	97

These rows are one share of the data; count on the stated rates, not on these rows.
